StopGo reporter – FMDV 2A StopGo reporter, luciferase signal; human cells with a luciferase reporter of 2A StopGo recoding; control for the full effect not named in the record; Potency, µM (doses to about 57.9 µM), inactives show at the highest dose signal change, negative = less light; hit rate 1.2% among 410,000; AID 1159524; active = well fitted falling curve with a large enough effect; inconclusive = small, poorly fitted or top-dose-only effect; inactive = no such curve, though single readings can be large or run the other way; tested in HEK293T cells; further: on the % scale 0 is the no-effect control and ±100 the full control effect; nearly all actives have a fitted effect of over 45% in size; luciferase light after 4 h
Cruzain Triton – cruzain (T. cruzi) inhibition with detergent; hit rate 0.43% among 200,000; P25779; purified cruzain, Z-FR-AMC fluorescence, 0.01% Triton; Potency, µM, without a hit: max response, negative = inhibition, actives largely listed as inhibitors;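 further: plate controls were neutral wells for no effect and buffer without enzyme for full effect; nearly all actives have a fitted effect of over 40% in size; top concentration of the series not given in the record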
Target sequence (P25779 123-467 limits assumed): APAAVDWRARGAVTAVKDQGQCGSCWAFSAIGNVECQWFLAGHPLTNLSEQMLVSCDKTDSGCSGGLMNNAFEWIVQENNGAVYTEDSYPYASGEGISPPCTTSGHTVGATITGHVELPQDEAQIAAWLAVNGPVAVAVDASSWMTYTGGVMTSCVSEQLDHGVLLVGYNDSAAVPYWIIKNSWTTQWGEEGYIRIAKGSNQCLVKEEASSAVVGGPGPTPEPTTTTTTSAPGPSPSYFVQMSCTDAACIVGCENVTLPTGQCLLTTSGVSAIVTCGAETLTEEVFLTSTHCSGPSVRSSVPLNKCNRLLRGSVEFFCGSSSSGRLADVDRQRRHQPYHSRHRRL
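Cysteine protease activity tested under reducing, mildly acidic conditions (100 mM sodium acetate pH 5.5, 5 mM DTT) plus 0.01% Triton X-100. Cruzain 1.5 nM; substrate Z-FR-AMC 2 uM; 15 min compound preincubation at room temperature.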
SARS PLpro yeast – inhibitors of SARS-CoV papain-like protease in yeast | Potency, µM (titrated, usually from 32.9 µM), inactives show top-dose activity, positive = growth rescue | S. cerevisiae expressing SARS-CoV PLpro, growth rescue; control for the full effect not named in the record | hit rate 0.19% among 330,000; active means well fitted rising curve with a large enough effect; inconclusive means small, poorly fitted or top-dose-only effect; inactive means no such curve, though single readings can be large or run the other way; further: 0% is about no effect; nearly all actives have a fitted effect of over 55% in size; growth read by luminescence after 48 h
LASV entry inh – Lassa virus entry inhibition | Potency, µM (doses to about 37.9 µM), for the others: at the highest dose activity change, negative = inhibition, most hits filed as inhibitors | Lassa virus pseudotype entry inhibition, cell reporter; control for the full effect not named in the record | AID 540256 | hit rate 1.2% among 300,000; active means well fitted inhibition curve with a large enough effect; inconclusive means small, poorly fitted or top-dose-only effect, or effect the other way; inactive means flat fitted curve, though single readings scatter; tested in HEK293 cells; further: on the % scale 0 is the no-effect control and ±100 the full control effect; nearly all actives have a fitted effect of over 50% in size; luciferase read-out
RE007 growth inh – less growth of the S. pombe RE007 Vpr strain | Potency, µM (highest dose often 92.2 µM), for the others: top-dose activity change, negative = less growth | hit rate 0.21% among 360,000 | S. pombe RE007 Vpr strain, BacTiter-Glo ATP luminescence, 24 h; control for the full effect not named in the record; active = well fitted falling curve with a large enough effect; inconclusive = small, poorly fitted or top-dose-only effect; inactive = no such curve, though single readings can be large or run the other way;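 further: on the % scale 0 is the no-effect control and ±100 the full control effect; nearly all actives have a fitted effect of over 50% in size; the assay follows cell death caused by Vpr and the record does not say whether a fall means rescue or toxicity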
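Fission yeast RE007 carrying one integrated HIV-1 vpr copy, seeded at OD 0.01 in PMG+AL medium with 23 nL pinned compound. Grown 24 h at 30 degrees; viability read by BacTiter-Glo luminescence after 5 min.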
Cruzain inh noDet – cruzain (T. cruzi) inhibition without detergent; AID 1476; P25779; purified cruzain, Z-FR-AMC fluorescence, no detergent; hit rate 2.3% among 200,000; Potency, µM, without a hit: max response, negative = inhibition, usual class: inhibitors;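 further: plate controls were enzyme without inhibitor for no effect and buffer without enzyme for full effect; nearly all actives have a fitted effect of over 40% in size; top concentration of the series not given in the record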
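Purified cruzain at 1.5 nM, pre-incubated 15 min with compound at room temperature in 100 mM sodium acetate pH 5.5, 5 mM DTT, 0.00005% Triton X-100. Reaction started with 2 uM Z-FR-AMC; AMC fluorescence increase over 60 s gives rate.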
MARV entry inh – inhibitors of Marburg virus binding or cell entry; Marburg virus pseudotyped entry inhibition, cell reporter; control for the full effect not named in the record; about a third of the inactives were read at about 46 µM; Potency, µM (series often up to 37.8 µM), for the others: at the top dose activity change, negative = inhibition, actives largely listed as inhibitors; hit rate 1.8% among 300,000; active = well fitted inhibition curve with a large enough effect; inconclusive = small, poorly fitted or top-dose-only effect, or effect the other way; inactive = flat fitted curve, though single readings scatter; tested in HEK293 cells; about a fifth of its hits are not listed in these tables; further: on the % scale 0 is the no-effect control and ±100 the full control effect; luciferase read-out
NS1 function inh – inhibitors of influenza NS1 protein function | Potency, µM (doses to about 46.1 µM), inactives show at the highest dose activity, positive = more growth | S. cerevisiae slowed by influenza A NS1, growth recovery by OD600 | hit rate 0.4% among 270,000 | AID 2326; active means well fitted rising curve with a large enough effect; inconclusive means small, poorly fitted or top-dose-only effect; inactive means no such curve, though single readings can be large or run the other way; further: nearly all actives have a fitted effect of over 50% in size
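A cell-based growth assay was used: compounds that relieve NS1-induced slow growth of budding yeast raise OD600. Assay medium was yeast nitrogen base with ammonium sulphate and -URA supplement, pH 6.0, with 2% galactose.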
Numbers without * were called inactive; ? = inconclusive; . = not tested or not shown; & = joins results of further samples; [ ] = dose if it differs, or a comment. Unless noted, the call rests on the fitted dose curve; in most records, active means well fitted curve in the direction sought with a large enough effect; inconclusive means small, poorly fitted or top-dose-only effect, or another doubt; inactive means no such curve, though single readings can be large; an effect the other way counts as inactive or inconclusive. Potency means the concentration at half of the fitted maximal effect.

SMILES | StopGo reporter | Cruzain Triton | SARS PLpro yeast | LASV entry inh | RE007 growth inh | Cruzain inh noDet | MARV entry inh | NS1 function inh
Cn1c(N)c(C(=O)COC(=O)c2cc(C(F)(F)F)nc3ccccc23)c(=O)n(C)c1=O | . | 3.4%&-2.3% | 0% | 2% | . | 6%&21% | 8%&8% | -1%
N#CC1=C2N=C(N)c3ccccc3N2C2=C(C(=O)CCC2)C1c1ccc(Cl)cc1 (stereo not given) | -22% | -2.4% | 10% | ? | 20% | -11% | -30% | ?
CC(=O)C1CCC2C3CCC4=CC(=O)CCC4(C)C3(F)C(O)CC12C (stereo not given) | -29% | . | . | -3% | -9% | . | 4% | .
COc1ccc(OCC(=O)NCC(c2ccc(OC)cc2)N2CCCCC2)cc1 (stereo not given) | -14%&-12% | 0.5% | -7% | 24%[46.1 µM] | -2% | 1% | 0%[46.1 µM] | 2%
CC(NC(=O)c1ccccc1Cl)C(=O)NCc1cccs1 (stereo not given) | -8% | . | 1% | 2% | -27% | . | -10% | .
CCOc1ccc(Br)cc1C(=S)N1CCCC1 | 6% | . | 6% | . | -1% | . | . | -4%
Cc1noc(C)c1COc1cccc(C(=O)NCc2ccccc2Cl)c1 | 0% | -2.2% | -22% | -5% | 6% | 4% | ? | -7%
CCOc1ccc(OCC(O)CNC2CCN(Cc3ccccc3)CC2)cc1 (stereo not given) | -17% | -5.0% | 3% | 6.3µM* | . | -5% | 1.6µM* | -2%
COc1cccc(C(=O)OCC(=O)NCCc2ccccc2)c1OC | -15% | . | 1% | 10% | -10% | . | 19% | .
CCOC(=O)CCCNC(=O)CCNC(=O)c1ccc(OCC)cc1 | 22% | 11% | 2% | ? | -3% | 1% | 21% | -2%
O=C(Nc1cccc(-n2cccn2)c1)C1CCCN(Cc2ccc(C#CCCO)cc2)C1 (stereo not given) | ? | . | -2% | ? | -19% | . | ? | 5%
CCCNC(=S)N1CCC(NC(=O)c2cccc(C)c2)CC1 | -15% | . | 1% | 10% | 14% | . | 7% | 9%
COc1ccccc1CNC(=O)C1CCCN(S(=O)(=O)c2ccc3c(c2)CC(C)N3C(C)=O)C1 (stereo not given) | -24% | . | 0% | . | -1% | . | . | 0%
CC1C(=NO)C(C)C(c2ccc(N(C)C)cc2)NC1c1ccc(N(C)C)cc1 (stereo not given) | . | 0.5% | -1% | 1% | 4% | -4% | 12% | -8%
O=C(Nc1ccccc1F)N1CCCC1c1cccnc1 (stereo not given) | 70%[activator] | . | 0% | -19% | -2% | . | 15%[46.1 µM] | 0%
COc1ccc(NS(=O)(=O)c2ccc(-n3cnnn3)cc2)cc1OC | -8% | . | -4% | . | -6% | . | . | 0%
O=C(C1COc2ccccc2O1)N1CCN(Cc2ccc3c(c2)OCO3)CC1 (stereo not given) | ? | -2.6% | -2% | -8% | -5% | 22% | -6% | -26%
CCOc1ccc(Oc2nc(NCC(C)C)nc(N3CCOCC3)n2)nn1 | 5% | -0.6% | . | -10%[46.1 µM] | . | 15% | -6%[46.1 µM] | .
CC(=O)NC(Cc1c[nH]c2ccccc12)C(=O)OCC(=O)N1CCCCCC1 (stereo not given) | 0% | . | 0% | 0% | 6% | . | 5%[46.1 µM] | -2%
CC(=O)N(Cc1cc2ccc(C)c(C)c2n2nnnc12)C1CCCC1 | . | -3.3% | 1% | . | . | 18% | 2% | -16%
O=C(COc1ccccc1)NCC(=O)Nc1cccc2ccccc12 | -6% | -2.3% | 18% | -2% | 3% | 1% | -18% | 4%
CCOc1ccc(-n2c(C)cc(C(=O)NS(=O)(=O)c3ccc(C)cc3)c2C)cc1 | 13% | -7.4% | -24% | 7%[46.1 µM] | -11% | 14% | -1%[46.1 µM] | 5%
O=C(COC(=O)Cc1ccsc1)Nc1ccc(Cl)c(S(=O)(=O)N2CCOCC2)c1 | -13% | -8.1% | 0% | 0% | -3% | 11% | 1% | -20%
O=C(O)C1CC(=O)N(c2ccc(F)cc2)C1 (stereo not given) | 4% | 2.7% | 1% | ? | 30% | -7% | -9%[46.1 µM] | ?
CCC(=O)OCC(=O)Nc1cc([N+](=O)[O-])ccc1Cl | 7% | . | -1% | ? | 9% | . | 8%[46.1 µM] | .
COc1ccc2nc(NC(=O)C3CCCN3S(=O)(=O)c3ccc(C)cc3)sc2c1 (stereo not given) | ? | -3.7% | -9% | ? | -22% | 1% | -24% | -48%
CCC(Nc1ccc(-c2nc(-c3cccnc3)no2)cc1[N+](=O)[O-])c1ccccc1 (stereo not given) | 0% | -3.6% | . | -12%[46.1 µM] | . | -9% | -1%[46.1 µM] | .
CCCCNC(=O)c1ccc(CS(=O)(=O)c2ccccc2OC)o1 | 14% | . | 0% | -17%[46.1 µM] | 6% | . | -6%[46.1 µM] | 1%
CC(=O)N1CCN(S(=O)(=O)c2cccc(C(=O)NC3CCCc4ccccc43)c2)CC1 (stereo not given) | 14% | 4.5% | -6% | 15% | 4% | ? | ? | -7%
COc1cc(C(=O)Nc2ccc(S(=O)(=O)N3CCCCC3)cc2)ccc1OCC(=O)N1CCOCC1 | 2% | . | . | 3% | -27% | . | ? | .
N#Cc1c(N)nc2c(c1-c1cccnc1)CCCCC2 | -26% | 0.3% | ? | ? | 7% | 6% | 6% | -11%
CCCCn1c(=O)c(C(=O)NCCc2ccccc2)c(O)c2ccccc21 | -16% | . | 10% | . | -5% | . | . | 11%
Cc1ccc(S(C)(=O)=NC(=O)c2cc(C)on2)cc1 (stereo not given) | 2% | . | 0% | ? | 1% | . | 21% | 0%
O=C1CN(C(=O)COC(=O)[C@@H]2CCCN2S(=O)(=O)c2ccc(Cl)cc2)c2ccccc2N1 | -11% | . | -4% | 1% | -2% | . | 2% | .
Cc1cc(C)nc(/N=C(\N)Nc2ccccc2-c2ccccc2)n1 | 18µM* | . | 1% | -20% | -9% | . | ? | -1%
O=C(CC(c1ccccc1)c1ccccc1O)NCc1ccccc1 (stereo not given) | 12% | . | 1% | ? | 1% | . | ? | 1%
CCOc1ncnc2c1sc1nc(C)cc(C)c12 | 15% | . | 2% | 13% | -2% | . | 22% | 4%
CCCCn1c(N)c(N(CC(C)C)C(=O)C2=NN(c3ccccc3)C(=O)CC2)c(=O)[nH]c1=O | -4% | . | 0% | 3% | -16% | . | 17% | .
COc1ccccc1-c1noc(CCCC(=O)Nc2cccc(C(F)(F)F)c2)n1 | 0% | -8.6% | . | 14%[46.1 µM] | . | 12% | . | .
COc1ccc(N2C(=O)C(CC(=O)Nc3ccc(F)cc3)N(CCC3=CCCCC3)C2=O)cc1 (stereo not given) | -26% | -6.1% | . | -20%[46.1 µM] | . | -4% | -22%[46.1 µM] | .
Nc1nc(SCC(=O)Nc2ccccc2)[nH]c(=O)c1-c1ccccc1 | -1% | 0.8% | 11% | -1% | -6% | 0% | 9% | 4%
COc1ccc(-c2csc3nc(C(C)(C)C)oc(=O)c23)cc1OC | ? | . | 1% | . | -7% | . | . | -1%
CCOc1ccc(NC(=O)CN(C)C(=O)c2cc(-c3ccncc3)nc3ccccc23)cc1OCC | -8% | . | 2% | -4%[46.1 µM] | -15% | . | ? | .
CCOC(=O)c1ccc(NC(=O)c2sc3nc4c(cc3c2N)N2CCC4CC2)cc1 | ? | -1.1% | . | 7%[46.1 µM] | . | -9% | ? | .
O=C(NCCNC(=O)c1ccc(Cl)cc1Cl)c1cnccn1 | -3% | . | -2% | 2% | 3% | . | 0%[46.1 µM] | 7%
CCOc1ccccc1N/C(=C(/C(Cl)=C(Cl)Cl)[N+](=O)[O-])n1cncn1 | -11% | -6.0% | -7% | ? | -2% | -26% | ? | -48%
Nc1cccc(-c2cn3cc(C(F)(F)F)cc(Cl)c3n2)c1 | -17% | -4.0% | -1% | ? | -6% | -4% | ? | 13%
CC(C)(C)NC(=O)NC(=O)C[n+]1ccc(Cc2ccc([N+](=O)[O-])cc2)cc1 | -10% | . | 1% | . | -22% | . | . | 4%
Cc1ccc(C)c(N2CCN(c3c(CN4CCCC4)c(=O)oc4ccccc34)CC2)c1 | -22% | -1.8% | . | 23%[46.1 µM] | . | -2% | ? | .
CCCOc1ccc2c3c(c(=O)oc2c1OCCC)CCC3 | 1% | -6.7% | 25% | -4% | 2% | 7% | ? | -17%
CCCNCC(=O)Nc1cccc(S(=O)(=O)NC2=NCCCCC2)c1 | -13% | . | -4% | 14% | 35% | . | 3% | .
O=C1CC(Cc2ccccc2)C(=O)N1Cc1ccco1 (stereo not given) | -11% | -7.7% | -4% | -12% | -20% | 18% | -12% | ?
Cc1cccc(NC2=NCCCS2)c1C | . | 1.9% | 0% | 25% | 1% | 3% | -6% | -9%
C/C(=N\OC(=O)c1c(-c2ccccc2Cl)noc1C)c1nccs1 | -27% | . | 0% | -21%[46.1 µM] | 2% | . | -9%[46.1 µM] | -1%
CCN(CC)S(=O)(=O)c1cc(C(=O)Nc2cccnc2)ccc1Cl | ? | 6.1% | 5% | 15% | -4% | 18% | 4% | -1%
O=c1[nH]c2ccccc2nc1/C=C/c1ccc(O)cc1 | -1% | . | -1% | ? | -27% | . | ? | 1%
CC(NC(=O)c1ccc(S(=O)(=O)C(F)F)cc1)c1ccccc1 (stereo not given) | -19% | . | -1% | -23% | 20% | . | 11% | .
CCOC(=O)C1CCCCN1C(=O)CCc1nnc(-c2ccc3c(c2)OCO3)o1 (stereo not given) | 13% | . | . | 30% | -7% | . | ? | .

Screening results from PubChem.

The order is random; any-hit rate near 4.6%.
